RanGTP-Imp inh = inhibitors of RanGTP-importin-beta interaction, primary screen, biochemical, FRET, CFP-Ran, YFP-importin-beta, homogeneous; Ran GTPase (GTP-bound) - importin-beta complex; cell-free CFP-Ran/YFP-importin-beta FRET ratio; inhibition, % (test concentration not listed); 300,000 compounds, 1.1% hits; AID 2216, 2009;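 active means most replicates above 15%; inconclusive means exactly half above 15%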;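 further: 0% = DMSO wells and 100% = Ran loaded with GDP instead of GTP; wells of about 40 µL received 100 nL stock; the first replicate is given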
Bfl-1 A1 inh = caspase 3/7 activation in MEF A1-2A-BIM cells, primary screen, A1 inhibitor project, cell-based, luminescence, HTS. Caspase-Glo 3/7 luminescence, 3 h; percent of clofoctol response, vehicle zero. 330,000 compounds, 0.066% hits. caspase activation, % (test concentration not listed);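 active means over half of replicate activation scores above 10%, or exactly half above 10 with the replicate mean above 10; inconclusive means replicate mean below 10 yet half the replicates above 10; inactive means over half of replicates below 10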;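 further: wells of about 30 µL received 50 nL stock; many hits fall short of the cut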
T cruzi inh = inhibitors of intracellular T. cruzi growth, primary screen, luminescence, NIH3T3 host cells; T. cruzi beta-gal in NIH3T3, 90 h; inhibition, % (concentration not given with the values); 300,000 compounds, 1.4% hits; AID 1885, 2009;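 active means mean inhibition across valid replicates above about 55%, limit read from the data; inconclusive means mean below that limit but half or more replicates reach it; inactive means mean below it, under half of replicates reach it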;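 further: signal also drops with host cell toxicity which is not excluded here; 0% = plate median of DMSO wells and 100% = zero luminescence signal; higher percent means less beta-gal luminescence so fewer parasites; stock transfer was 50 nL into about 50 µL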
B2AR ag = beta2AR agonists driving receptor internalization, primary screen, cell-based, FAP fluorogen, flow cytometry. response, % (no concentration beside the values). Am2.2-beta2AR cells; reference of the scale not given here. 340,000 compounds, 0.43% hits;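 active means response above a set limit, near 3 SD of response in nonfluorescent compounds, cut at about 42% in these data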;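 further: stock transfer was 100 nL into about 11 µL; a reference agonist was the positive control; negative values mostly stem from fluorescent compounds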
Target sequence (P07550 whole entry, looked up): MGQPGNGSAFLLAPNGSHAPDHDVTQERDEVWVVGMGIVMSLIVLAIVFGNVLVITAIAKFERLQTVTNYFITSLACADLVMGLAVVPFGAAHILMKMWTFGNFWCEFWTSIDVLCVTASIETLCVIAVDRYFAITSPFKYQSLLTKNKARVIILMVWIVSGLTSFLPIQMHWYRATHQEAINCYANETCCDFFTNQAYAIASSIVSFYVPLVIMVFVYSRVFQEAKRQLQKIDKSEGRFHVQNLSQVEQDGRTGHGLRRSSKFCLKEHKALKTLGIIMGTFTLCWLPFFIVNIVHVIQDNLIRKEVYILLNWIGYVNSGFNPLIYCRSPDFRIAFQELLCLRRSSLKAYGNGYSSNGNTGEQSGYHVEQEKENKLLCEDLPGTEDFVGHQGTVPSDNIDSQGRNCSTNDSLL
Beta apoptosis = inhibitors of cytokine-induced beta cell apoptosis, primary screen, luminescence; INS-1E cytokine-induced death, ATP luminescence, 48 h; percent of positive-control rescue, neutral wells zero; protection from apoptosis, % (test concentration not listed); 300,000 compounds, 0.8% hits; AID 435005, 2010;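 active means all replicates at 75% or more, or half of them and the mean; inconclusive means half reach 75% but not the mean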;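 further: 0% = cytokine-treated negative control wells and 100% = positive control rescue; higher means more ATP so stronger rescue from cytokine killing; wells of about 40 µL received 100 nL stock; the first replicate is given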
Calb FLC = C. albicans growth inhibition with fluconazole, primary screen, CaCi-2 strain, Alamar Blue fluorescence | C. albicans CaCi-2 (fluconazole-resistant clinical isolate) + fluconazole, 48 h | growth inhibition, % (concentration not given with the values) | 300,000 compounds, 0.57% hits | AID 1979, 2009;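 active means most replicates above 75%; inconclusive means exactly half above 75%; inactive means most below 75%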;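 further: all wells also contain fluconazole at 8 µg/ml as a sub-toxic cotreatment; 0% = median of DMSO wells and 100% = median of geldanamycin control wells; wells of about 8 µL received 7.5 nL stock; the first replicate is given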
LANA-H2A inh = blockers of LANA interaction with H2A/H2B – biochemical, FP readout, HTS, primary screen. 320,000 compounds, 0.6% hits. cell-free LANA-H2A/H2B peptide, fluorescence polarization. Protein LANA1 (Human herpesvirus 8 type P (isolate GK18)), Q9QR71. inhibition, % (concentration not given with the values); in the data active means inhibition mostly above about 10%, no sharp cut-off; inactive means mostly below about 6.7%;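 further: stock transfer was 7.5 nL into about 10 µL; 0% = median of vehicle wells and 100% = median of positive control wells; one replicate is shown; the record names a cut of 25% in any replicate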
UCH37 inh = inhibitors of human UCH37 deubiquitinase, primary screen, biochemical, Ub-AMC cleavage, fluorescence; purified proteasome/UCH37; inhibition, % (concentration not given with the values); Ubiquitin carboxyl-terminal hydrolase isozyme L5 (Homo sapiens), Q9Y5K5; 330,000 compounds, 0.33% hits; AID 588478, 2011;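 active means mean of two replicates above 20%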;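 further: 0% = compound-free wells with enzyme and 100% = wells lacking proteasome; stock transfer was 100 nL into about 20 µL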
Target sequence (Q9Y5K5 whole entry, looked up): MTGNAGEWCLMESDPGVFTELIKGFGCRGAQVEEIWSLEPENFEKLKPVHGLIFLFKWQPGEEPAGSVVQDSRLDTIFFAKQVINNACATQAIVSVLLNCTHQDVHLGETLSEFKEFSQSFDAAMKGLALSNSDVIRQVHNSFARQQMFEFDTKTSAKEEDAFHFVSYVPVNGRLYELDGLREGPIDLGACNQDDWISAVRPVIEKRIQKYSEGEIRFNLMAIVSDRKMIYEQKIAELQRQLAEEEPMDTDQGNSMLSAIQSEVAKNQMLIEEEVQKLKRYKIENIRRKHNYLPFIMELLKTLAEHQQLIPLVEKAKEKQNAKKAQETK
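Material: Human UCH37 enzyme supplied as purified proteasome complex | Schedule: 30 min compound-proteasome preincubation then 25 min substrate reaction, room temperature | Detection: AMC fluorescence from Ub-AMC cleavage, excitation 355 nm, emission 460 nm | Benchmarks: Wells without proteasome as full block, compound-free enzyme plus substrate as uninhibited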
* marks the source's active call; other numbers are inactive results; ? = inconclusive; . = no result given.

1) O=C(NNc1cccc([N+](=O)[O-])c1)/C(=C\c1cccnc1)NC(=O)c1ccccc1
2) COc1ccccc1CCNC(=O)CSc1nnc2ccc(-c3cccnc3)nn12
3) COc1ccccc1-n1cnc2cc(C(=O)NCc3ccco3)ccc21
4) O=C(NC1CCCCNC1=O)c1ccc(Cl)cc1 (stereo not given)
5) O=C(NC(=S)Nc1ccc(S(=O)(=O)Nc2nccs2)cc1)c1cccc(F)c1
6) Cn1c(C(=O)N(Cc2ccccc2)Cc2ccccn2)cc2sccc21
7) CC(C)Oc1ccc(C(CC(=O)O)NC(=O)Cc2ccccc2)cc1 (stereo not given)
8) COc1ccc2oc(C(=O)OCC(=O)Nc3ccccc3OC)c(C)c2c1
9) Cc1cc(NS(=O)(=O)c2ccccc2)n(-c2ccccc2)n1
10) COc1ccc(C2=NN(C(=O)CSc3cn(C)c4ccccc34)C(c3ccc(OC)cc3)C2)cc1 (stereo not given)
compound no.	1	2	3	4	5	6	7	8	9	10
RanGTP-Imp inh	-4.7	-0.4	7.0	2.1	5.7	?	1.3	1.4	-0.5	3.1
Bfl-1 A1 inh	-0.2	-0.3	0.0	0.0	-4.6	0.9	-0.4	-0.1	0.6	-0.3
T cruzi inh	1.0	7.6	7.0	-4.1	-20.5	15.7	-3.8	4.1	-6.4	48.9
B2AR ag	-1.6	5.8	1.4	1.6	0.6	0.6	-4.6	-0.3	0.8	3.5
Beta apoptosis	-3.8	-2.0	-0.3	-5.2	-2.2	-1.7	-0.2	1.7	-3.1	9.6
Calb FLC	-7.2	-3.7	-6.4	1.5	-0.3	13.7	-7.1	2.1	12.6	11.7
LANA-H2A inh	-3.0	-1.0	.	2.3	-2.1	4.2	-1.5	-7.1	-1.1	7.1
UCH37 inh	9.2	0.3	4.6	4.2	-9.9	3.7	3.4	-21.3	1.2	2.3

(cont.)
No. | molecule | RanGTP-Imp inh | Bfl-1 A1 inh | T cruzi inh | B2AR ag | Beta apoptosis | Calb FLC | LANA-H2A inh | UCH37 inh
11 | CCOc1c(OC(C)=O)ccc(/C=C/c2ccc3cccc(OC(C)=O)c3n2)c1[N+](=O)[O-] | 4.8 | -0.3 | -7.6 | 6.2 | 8.4 | 50.4 | -1.7 | 2.2
12 | O=C1CCC(C(=O)N2CCCCO2)CN1Cc1cccc(C(F)(F)F)c1 (stereo not given) | -4.6 | 0.3 | -4.4 | 5.7 | -5.1 | 1.0 | 4.6 | 1.1
13 | CS(=O)(=O)N1CCCC(C(=O)NCc2cccs2)C1 (stereo not given) | -4.4 | 0.8 | -8.2 | 0.9 | -5.4 | 0.5 | 1.8 | 3.6
14 | CCC(C)C(=O)Nc1nccs1 (stereo not given) | 2.7 | -0.9 | -26.3 | -2.3 | . | 6.0 | 2.3 | 6.9
15 | CC(C)(C)c1ccc(C(=O)N/C(=C\c2cccs2)C(=O)NCc2ccco2)cc1 | -0.4 | 0.6 | 5.4 | 6.1 | 11.8 | -4.3 | 1.7 | 5.1
16 | COc1ccc(CN2CNc3nc4ccccc4n3C2)cc1 | 3.9 | . | -1.4 | 1.0 | -8.1 | -11.0 | 22.1* | 5.2
17 | Cc1nc2c(C)cccn2c(=O)c1NC(=O)c1ccc2c(c1)OCO2 | -2.0 | -0.2 | -13.0 | 4.2 | -2.1 | 0.0 | 1.0 | 5.9
18 | CCOC(=O)C1=C(C)C2C3C(=O)N(c4cc(C)ccc4C)C(=O)C3C1(C)C1C(=O)N(c3cc(C)ccc3C)C(=O)C21 (stereo not given) | -3.1 | 1.5 | 6.4 | -7.3 | 3.8 | 2.9 | -0.3 | 3.1
19 | CCOC(=O)N1CCN(C(=O)Cn2cnc3ccccc3c2=O)CC1 | -0.4 | 0.1 | -16.4 | -2.1 | -1.3 | -2.9 | 3.0 | -1.9
20 | Cc1ccc(NC(=O)c2ccc(N3CCOCC3)c([N+](=O)[O-])c2)cc1S(=O)(=O)N1CCOCC1 | 1.0 | 0.7 | -12.1 | 48.8* | 0.1 | 2.6 | -4.9 | 3.2
21 | CCCc1nnc(NC(=O)c2nc(S(=O)(=O)Cc3ccc(C)cc3)ncc2Cl)s1 | -3.3 | 1.2 | -3.8 | 16.8 | -18.0 | -4.2 | 10.0 | .
22 | COc1ccc(NC(=O)CN2C(=O)COc3ccc(S(=O)(=O)N4CCCCC4)cc32)cc1OC | 2.5 | -0.1 | -9.4 | 0.7 | -0.8 | -1.0 | -2.3 | 5.2
23 | Cc1ccc(C(=O)OCC(=O)Nc2sc3c(c2C#N)CCCCC3)cc1NC(=O)c1ccco1 | -3.1 | ? | 13.2 | -16.8 | -1.4 | -9.2 | -1.2 | -0.7
24 | c1ccc(OCc2nnc3n2CCCCC3)cc1 | 1.0 | 0.4 | -12.9 | -6.6 | -0.3 | -3.5 | -4.8 | 5.0
25 | CCNc1nc(-c2ccc(OC(F)F)cc2)c(C)s1 | 2.5 | 0.2 | -2.6 | 7.4 | -4.0 | -7.2 | 0.1 | -0.6
26 | Cc1ccc(C)c(S(=O)(=O)N2CCN(C(=O)c3ccc(-n4cncn4)c([N+](=O)[O-])c3)CC2)c1 | . | 1.2 | 18.0 | -4.1 | -4.4 | -0.5 | -6.8 | 1.4
27 | Nc1c(-c2ccccc2)cnn1-c1ccc(C(=O)O)cc1 | -0.5 | -8.8 | 3.9 | -1.8 | -6.6 | 0.3 | 6.2 | 4.3
28 | O=S1(=O)CCOC[C@H](CC2CCCCC2)N1Cc1ccccc1F | -3.3 | -0.7 | 10.7 | -4.5 | 0.4 | -7.2 | -1.9 | 5.5
29 | O=c1nc(N2CCOCC2)nc(N/N=C/c2ccc3c(c2)OCO3)[nH]1 | 1.1 | -0.7 | -1.8 | -9.2 | -1.0 | -8.6 | -9.4 | .
30 | CCN(CC)S(=O)(=O)c1ccc(C(=O)NCC2(N3CCOCC3)CCCCC2)cc1 | . | 2.6 | . | 2.7 | 1.4 | . | 2.0 | 1.7

Filtered by structure: the entries above containing a Cl atom (two)
No. | molecule | RanGTP-Imp inh | Bfl-1 A1 inh | T cruzi inh | B2AR ag | Beta apoptosis | Calb FLC | LANA-H2A inh | UCH37 inh
4 | O=C(NC1CCCCNC1=O)c1ccc(Cl)cc1 (stereo not given) | 2.1 | 0.0 | -4.1 | 1.6 | -5.2 | 1.5 | 2.3 | 4.2
21 | CCCc1nnc(NC(=O)c2nc(S(=O)(=O)Cc3ccc(C)cc3)ncc2Cl)s1 | -3.3 | 1.2 | -3.8 | 16.8 | -18.0 | -4.2 | 10.0 | .

Twelve successive entries already listed, quoted:
No. | molecule | RanGTP-Imp inh | Bfl-1 A1 inh | T cruzi inh | B2AR ag | Beta apoptosis | Calb FLC | LANA-H2A inh | UCH37 inh
11 | CCOc1c(OC(C)=O)ccc(/C=C/c2ccc3cccc(OC(C)=O)c3n2)c1[N+](=O)[O-] | 4.8 | -0.3 | -7.6 | 6.2 | 8.4 | 50.4 | -1.7 | 2.2
12 | O=C1CCC(C(=O)N2CCCCO2)CN1Cc1cccc(C(F)(F)F)c1 (stereo not given) | -4.6 | 0.3 | -4.4 | 5.7 | -5.1 | 1.0 | 4.6 | 1.1
13 | CS(=O)(=O)N1CCCC(C(=O)NCc2cccs2)C1 (stereo not given) | -4.4 | 0.8 | -8.2 | 0.9 | -5.4 | 0.5 | 1.8 | 3.6
14 | CCC(C)C(=O)Nc1nccs1 (stereo not given) | 2.7 | -0.9 | -26.3 | -2.3 | . | 6.0 | 2.3 | 6.9
15 | CC(C)(C)c1ccc(C(=O)N/C(=C\c2cccs2)C(=O)NCc2ccco2)cc1 | -0.4 | 0.6 | 5.4 | 6.1 | 11.8 | -4.3 | 1.7 | 5.1
16 | COc1ccc(CN2CNc3nc4ccccc4n3C2)cc1 | 3.9 | . | -1.4 | 1.0 | -8.1 | -11.0 | 22.1* | 5.2
17 | Cc1nc2c(C)cccn2c(=O)c1NC(=O)c1ccc2c(c1)OCO2 | -2.0 | -0.2 | -13.0 | 4.2 | -2.1 | 0.0 | 1.0 | 5.9
18 | CCOC(=O)C1=C(C)C2C3C(=O)N(c4cc(C)ccc4C)C(=O)C3C1(C)C1C(=O)N(c3cc(C)ccc3C)C(=O)C21 (stereo not given) | -3.1 | 1.5 | 6.4 | -7.3 | 3.8 | 2.9 | -0.3 | 3.1
19 | CCOC(=O)N1CCN(C(=O)Cn2cnc3ccccc3c2=O)CC1 | -0.4 | 0.1 | -16.4 | -2.1 | -1.3 | -2.9 | 3.0 | -1.9
20 | Cc1ccc(NC(=O)c2ccc(N3CCOCC3)c([N+](=O)[O-])c2)cc1S(=O)(=O)N1CCOCC1 | 1.0 | 0.7 | -12.1 | 48.8* | 0.1 | 2.6 | -4.9 | 3.2
21 | CCCc1nnc(NC(=O)c2nc(S(=O)(=O)Cc3ccc(C)cc3)ncc2Cl)s1 | -3.3 | 1.2 | -3.8 | 16.8 | -18.0 | -4.2 | 10.0 | .
22 | COc1ccc(NC(=O)CN2C(=O)COc3ccc(S(=O)(=O)N4CCCCC4)cc32)cc1OC | 2.5 | -0.1 | -9.4 | 0.7 | -0.8 | -1.0 | -2.3 | 5.2
